# HCMV NEC inh: disrupts HCMV UL50-UL53 complex binding | HTRF UL50-UL53 interaction, normalized percent inhibition | inhibition, % (no concentration beside the values) | hit rate 0.15% among 190,000;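 active = both replicates at 50% or more, plus weaker picks with an unusually low signal ratio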;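 note: stock transfer was 100 nL into about 20 µL; 0% = negative control wells and 100% = wells with untagged competitor protein; inactives centre near -12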
# GIV-Gai inh: GIV-Galpha-i interaction inhibition. Galpha-i3/FITC-GIV peptide fluorescence polarization, 90 min; stronger effect = lower value; scaled: aluminum fluoride 0%, vehicle 100%. percent of control (FP), % (concentration not given with the values). hit rate 0.42% among 210,000;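 active = replicate mean at 85% of control or lower, very high polarization wells dropped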;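 note: wells of about 15 µL received 100 nL stock; the first replicate is given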
# Target sequence (P08753 whole entry, looked up): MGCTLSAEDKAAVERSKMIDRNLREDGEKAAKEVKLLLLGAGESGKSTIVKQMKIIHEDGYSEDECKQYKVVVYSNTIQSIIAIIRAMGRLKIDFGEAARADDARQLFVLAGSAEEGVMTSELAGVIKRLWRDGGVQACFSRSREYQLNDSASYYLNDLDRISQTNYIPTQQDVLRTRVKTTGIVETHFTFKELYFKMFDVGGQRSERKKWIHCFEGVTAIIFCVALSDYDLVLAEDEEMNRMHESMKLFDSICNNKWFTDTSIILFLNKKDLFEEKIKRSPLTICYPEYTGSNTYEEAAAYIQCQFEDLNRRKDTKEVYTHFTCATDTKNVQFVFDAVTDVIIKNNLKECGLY
# Sa growth inh: inhibitors of Staphylococcus aureus growth at 42 °C | relative growth, % (test concentration not listed) | S. aureus RN4220 growth, OD600, 20 h; stronger effect = lower value | hit rate 0.53% among 170,000 | AID 720641;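 active = growth at 42 °C up to 50% and 20 or more points under that at 30 °C, or under 10% at both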;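 note: 300 nL library stock went into each well; scaled to the means of positive and negative controls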
# Sa growth inh second temp: also measured in Sa growth inh; calls as there; relative growth, %; measured here: growth at 30 °C;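 optical density after 20 h as mean of two plates; 100% = untreated growth and lower means inhibition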
# The depositor's hits bear a star; . = not tested or not shown; & = joins results of further samples.
no.	Structure	HCMV NEC inh	GIV-Gai inh	Sa growth inh	Sa growth inh second temp
1	O=C(NCCC1=CCCCC1)c1cccc(-n2nnc3cccnc32)c1	-26	112	.	.
2	COc1ccccc1CNC(=O)CSC1=Nc2ccccc2N=C(c2ccc(F)cc2)C1	.	99	103	82
3	CC(=O)N1CCc2cc(Br)cc(S(=O)(=O)CC(=O)N3CCc4ccccc43)c21	.	97	120	78
4	COC(=O)C1=C(NC(=O)c2ccc(C(C)(C)C)cc2)CCS1	.	99	70	93
5	CN(c1ccccc1)C(c1ccc(F)cc1)c1nnnn1CC1CCCO1 (stereo not drawn)	-1	106	128	93
6	CC(=O)N1CCN(c2ccccc2)CC1	3	103	100	93
7	c1ccc(N2CCN(CN3CCN(c4ccccc4)CC3)CC2)cc1	.	101	112	93
8	COC(=O)C(=C/C=C/c1ccccc1)C(=O)OC	-31	104	100	82
9	Cc1ccc(N2C(=O)CN(C3CCCC3)[C@H]3CS(=O)(=O)C[C@H]32)cc1	13	106	.	.
10	Cc1occc1C(=O)Oc1ccc2c(c1)OCO2	-33	.	103	87
11	c1ccc(-c2nc3ccccc3o2)nc1	-29	101	119	82
12	NNC(=O)c1n[nH]c2c1CCCC2	-6	101	84	55
13	COC(=O)c1ccccc1NC(=O)c1cccc(C)c1	-11	105	82	62
14	CSc1nc(/N=C/N(C)C)nn1CCC#N	-20	102	94	96
15	CCc1nnc2sc(-c3ccc(NC(=O)c4cccnc4)cc3)nn12	-12	105	99	100
16	Cc1cc(C)c(NC(=O)C2CCN(C(=O)N3CC(C)Oc4ccc(Cl)cc43)CC2)c(C)c1 (stereo not drawn)	-16	107	95	82
17	COC(=O)C1=C(C)N=c2s/c(=C\c3cc(Br)ccc3OC(C)=O)c(=O)n2C1c1ccccc1 (stereo not drawn)	-16	108	.	.
18	COc1ccc(C2C(Oc3ccccc3)C(=O)N2c2ccc(C)c(C)c2)cc1OC (stereo not drawn)	-2	106	.	.
19	Cc1ccc(C(=O)N2CCCN(C)CC2)o1	-22	101	103	97
20	O=C(O)CSc1nnc(-c2ccccc2)o1	-17	99	111	87
21	CS(=O)(=O)N1CCc2cc(C(=O)N3CCN(c4cccc(Cl)c4)CC3)ccc21	0	104	102	86
22	CC(C)CCNC(=O)NCCn1c(-c2ccc(F)cc2)nc2ccccc21	-15	107	.	.
23	Cc1cc(C)nc(NC(c2ccccn2)c2c(NC(=O)c3ccccc3)sc3c2CCCC3)n1 (stereo not drawn)	-6	105	.	.
24	O=S(=O)(c1ccccc1)N1N=C(c2ccccc2)CC1c1ccccc1F (stereo not drawn)	-1	114	.	.
25	CCS(=O)(=O)N1CCC2(CC1)OC(=O)C(C)=C2C(=O)NCCN(CC(C)C)CC(C)C	-22	107	.	.
26	CSc1ccccc1C(=O)NCc1ccc2c(c1)OCO2	2	99	108	106
27	CC(C)(C)OC(=O)N1CCC[C@H]1C(=O)OCC(=O)Nc1ccc2c(c1)OCCCO2	-23	.	104	85
28	CCC(Sc1nnc2c3ccccc3n(C)c2n1)C(=O)NC(C)c1ccccc1 (stereo not drawn)	-4	109	87	77
29	O/N=C/c1c(OCc2ccccc2)ccc2ccccc12	-2	.	100	84
30	CCOc1ccc(CNCCNC(=O)c2nonc2N)cc1	-18	108	104	90
31	N/C(=N/OC(=O)c1ccccc1)c1ccccn1	-2	102	105	89
32	CCCCCCNC(=O)C1CCN(c2ccc(-c3ccccc3)nn2)CC1	-7	100	.	.
33	COC(=O)c1cc(S(=O)(=O)N2CCCC2C(=O)Nc2ccc(F)cc2)cn1C (stereo not drawn)	-6	97	.	.
34	CCOc1ccc2nc(NC(=O)C(CC(C)C)NS(=O)(=O)c3ccc4c(c3)oc(=O)n4C)sc2c1 (stereo not drawn)	2	106	123	97
35	O=C(O)c1ccc(S(=O)(=O)Cc2ccccc2)cc1	-9	104	85	88
36	NNC(=O)CNC(c1ccccc1)c1cc(Br)ccc1NC(=O)CCN1CCOCC1 (stereo not drawn)	-10	104	71	66
37	COc1ccccc1N1CCN(c2c3c(nc4nncn24)CCC3)CC1	-16	103	85	91
38	CCOC(=O)N1CCN(S(=O)(=O)c2ccc(C(=O)Nc3nc4ccc(OC)cc4s3)cc2)CC1	3	98	.	.
39	CCCCCC(=O)N1c2ccccc2NC2=C(C(=O)CC(c3ccco3)C2)C1c1ccc(OC)c(OC)c1 (stereo not drawn)	-15	110	.	.
40	O=C(CN1CCSc2ccccc21)N1CCCCC1	.	102	94	91
41	O=C(NC1CCN(Cc2ccccc2)CC1)c1noc2c1CSc1ccccc1-2	-9	104	.	.
42	O=c1[nH]c(NC2CCN(Cc3ccccc3)CC2)nc2c1CCCC2	3	100	93	83
43	O=C(NCc1ccc2c(c1)OCO2)c1cc(=O)[nH]c2ccc(Br)cc12	-8	104	103	97
44	CC(C)N(C(=O)Cn1nc(C(=O)O)c2ccccc2c1=O)C(C)C	-16	.	94	91
45	CCS(=O)(=O)N1CCC2(CC1)Nc1ccc(Cl)cc1-n1cccc12	-34	105	.	.
46	CC1=C(C#N)C(=O)NC(=O)/C1=C\c1ccc(-c2ccc(S(N)(=O)=O)cc2)o1	-72	105	123	84
47	O=C(CSc1ncccn1)NCCc1ccccc1	-16	102	100	82
48	CCOC(=O)c1ccc(NC(=O)CS(=O)(=O)C(C)C)cc1	-1	107	98	90
49	Cn1nc(C(C)(C)C)c(NC(=O)c2sccc2Cl)c1C(C)(C)C	1	113	94	100
50	O=c1oc2cc(O)ccc2cc1-c1csnn1	-74	113	105	87

# The list continues.
no.	Structure	HCMV NEC inh	GIV-Gai inh	Sa growth inh	Sa growth inh second temp
51	O=C(O)CCCN1C(=O)/C(=C/c2ccc(-c3ccccc3F)o2)SC1=S	-35	117	83	48
52	O=C(CCSCCc1ccccn1)Nc1ccccc1C(F)(F)F	.	101	107	90
53	CC(Sc1ncnc2c1cnn2-c1ccccc1)C(=O)NC(N)=O (stereo not drawn)	-10	.	101	92
54	Cc1cc(/C=N\NC(=O)COc2cccc3cccnc23)c(C)n1-c1cccnc1	-15	104	103	88
55	COc1cc(C(=O)N2CCC(c3ccncc3)CC2)cc(OC)c1OC	.	102	101	88
56	O=C(O)c1ccc(OCC(F)(F)F)nc1	0	108	110	70
57	CCC(=O)OCc1cc(=O)n2nc(C3CC3)sc2n1	.	118	89	81
58	Cn1c(=O)n(C)c2cc(Nc3nc4ccc(Cl)cc4n4nnnc34)ccc21	-34	98	85	90
59	O=C(Nc1ccn(-c2ccccc2)n1)c1ccccc1Br	-36	.	122	89
60	Fc1ccc(-c2noc3ncnc(N(Cc4ccco4)CC4CCCO4)c23)cc1 (stereo not drawn)	-30	104	92	74

# A section from the list above, as a working copy:
no.	Structure	HCMV NEC inh	GIV-Gai inh	Sa growth inh	Sa growth inh second temp
54	Cc1cc(/C=N\NC(=O)COc2cccc3cccnc23)c(C)n1-c1cccnc1	-15	104	103	88
55	COc1cc(C(=O)N2CCC(c3ccncc3)CC2)cc(OC)c1OC	.	102	101	88
56	O=C(O)c1ccc(OCC(F)(F)F)nc1	0	108	110	70
57	CCC(=O)OCc1cc(=O)n2nc(C3CC3)sc2n1	.	118	89	81
58	Cn1c(=O)n(C)c2cc(Nc3nc4ccc(Cl)cc4n4nnnc34)ccc21	-34	98	85	90
59	O=C(Nc1ccn(-c2ccccc2)n1)c1ccccc1Br	-36	.	122	89

# (further entries)
no.	Structure	HCMV NEC inh	GIV-Gai inh	Sa growth inh	Sa growth inh second temp
61	O=C(Nc1ccc2nc(SCC(=O)N3CCCC3)sc2c1)c1ccc(F)cc1	-25	107	104	91
62	N/C(=N\c1nc2ccccc2s1)NC(=O)c1cccc(Cl)c1	.	98	109	93
63	COc1ccc2c(c1)C(=NO)c1cc(OC)ccc1-2	-16	99	134	110
64	CC1Cc2cc(C(=O)CSc3nnc(Cc4cccs4)n3C)ccc2N1S(C)(=O)=O (stereo not drawn)	27	.	114	109
65	OC(c1ccccc1)C(O)c1ccccc1 (stereo not drawn)	20	104	91	106
66	CCN(c1ccccc1)S(=O)(=O)c1ccc2[nH]cc(C(=O)N3CCC(C)CC3)c(=O)c2c1	.	105&102	96	82
67	CC(Sc1nncs1)C(=O)N1c2ccccc2CC1C (stereo not drawn)	-9	.	88	98
68	CCOc1ccc2oc(C)c(C(=O)Nc3ccc(N(C)C(C)=O)cc3)c2c1	-8	104	.	.
69	CC(C)(C)c1ccc(C(=O)Nc2c3c(nn2C(C)(C)C)CSC3)cc1	12	107	110	100
70	O=C(NCCc1ccc(Cl)cc1)c1ccc2c(c1)N(Cc1ccccc1)CCS2	-5&-32	107&100	98	98
71	Cc1noc(C)c1COC(=O)c1ccc(S(=O)(=O)N(C)C)cc1	1	.	110	103
72	COc1ccccc1N1CCn2c1nc1c2c(=O)n(CC(=O)O)c(=O)n1C	6	97	.	.
73	Cn1nc(-c2ccccc2)c(C(O)c2cccs2)c1Cl (stereo not drawn)	2	102	.	.
74	O=C(c1ccc(N2CCNCC2)c(NS(=O)(=O)c2ccccc2)c1)N1CCN(C2CCCCC2)CC1	-11	101	.	.
75	CC1Cc2ccccc2N1C(=S)Nc1ccc(S(N)(=O)=O)cc1 (stereo not drawn)	1	107	93	106
76	O=c1c(-c2nnnn2-c2ccc(Cl)cc2)c[nH]c2ccccc12	4	104	91	77
77	CCC12CN(S(=O)(=O)c3ccccc3)CC(CC)(CN(S(=O)(=O)c3ccccc3)C1)C2=O	.	101	105	98
78	CCOc1cccc(NC(=O)c2ccc(F)c(S(=O)(=O)N(CC)c3cccc(C)c3)c2)c1	.	100	137	89
79	CCOc1cc(/C=C2\C(=N)N3C(C)=CSC3=NC2=O)ccc1OCc1ccc2c(c1)OCO2	.	105	93	86
80	COc1ccc(Oc2ccccc2C#N)cc1	8	98	.	.
81	OCc1nc2ccccc2n1Cc1ccc2ccccc2c1	-21	.	106	92
82	CCCNC(=O)c1ccccc1N	1	.	87	95
83	COc1ccccc1-c1cc(=O)n(CC(=O)NCc2ccc(C)cc2)c2c1CCCC2	-7	107	.	.
84	CCc1ccc2ncc(S(=O)(=O)c3ccc(Cl)cc3)c(N3CCN(CC)CC3)c2c1	-38	106	106	78
85	Cc1cc(/C=C(\C#N)C(=O)OC(C)C)c(C)n1-c1cc(Cl)ccc1Cl	-33	.	103	92
86	COc1ccc(-c2[nH]nc3c2C(c2ccc(N(C)C)cc2)C2=C(CC(C)(C)CC2=O)N3)cc1 (stereo not drawn)	-18	107	106	87
87	CC(C)CNC(=O)c1cnn2c(C(F)F)cc(-c3ccccc3)nc12	-36	101	86	83
88	COc1ccc(C(=O)COC(=O)CSc2nc(C)cc(C)n2)cc1OC	-27	.	92	97
89	COc1ccccc1NC(=O)CSc1c2c(nc3ccccc13)CCC2	.	105	88	86
90	CCC(c1nnc(SC/C(O)=C(\C#N)c2nc3ccccc3[nH]2)n1Cc1ccccc1)N(C)C (stereo not drawn)	-14	.	95	87
91	CCC1=NC(c2ccccc2OC)N(O)C1(C)C (stereo not drawn)	.	98	117	84
92	COc1ccc(C(=O)Sc2nnc(-c3cccs3)n2-c2ccccc2)cc1	-18	.	78	81
93	O=C(NCCCN1CCOCC1)C1CCCN(c2ccnc(-c3ccc(F)cc3)n2)C1 (stereo not drawn)	-21	104	.	.
94	COc1ccc(NC(=O)C2=C(C)Nc3nc(SCc4ccc(Cl)cc4)nn3C2c2cccc(OC)c2OC)cc1 (stereo not drawn)	.	106	102	78
95	O=C(NCCc1ccc(Cl)cc1)c1ccc(CSCc2ccc(Cl)cc2)o1	.	100	101	63
96	CC1CCN(S(=O)(=O)c2ccc(F)c(F)c2)CC1	-12	.	87	95
97	O=C(Nc1sc2c(c1C(=O)NCC1CCCO1)CCC2)c1csnn1 (stereo not drawn)	-23	101	.	.
98	CCOC(=O)C1CCN(/C(C)=C2/C(=O)N(c3nc4ccccc4[nH]3)N=C2C)CC1	-12	97	99	75
99	CCCNc1c(NC(=O)c2ccc(OCCC)cc2)c(=O)oc2ccccc12	4	98	115	95
100	O=C(O)CCCn1c(=O)oc2ccccc21	-8	101	81	105

# Full records, looked up by structure.
# Listed for O=C(Nc1sc2c(c1C(=O)NCC1CCCO1)CCC2)c1csnn1 (stereo not drawn) = HCMV NEC inh: -23; GIV-Gai inh: 101; Sa growth inh: .; Sa growth inh second temp: .
# Listed for O=C(NCCCN1CCOCC1)C1CCCN(c2ccnc(-c3ccc(F)cc3)n2)C1 (stereo not drawn) = HCMV NEC inh: -21; GIV-Gai inh: 104; Sa growth inh: .; Sa growth inh second temp: .

# Next part.
no.	Structure	HCMV NEC inh	GIV-Gai inh	Sa growth inh	Sa growth inh second temp
101	COc1cccc2c1Oc1ncccc1N(C(=O)CCC(=O)NC(C)CCc1ccccc1)C2 (stereo not drawn)	-10	114	.	.
102	CCC(C)NC(=O)C1c2cc(OC)c(OC)cc2C(=O)N(C)C1c1ccc(OC)c(OC)c1 (stereo not drawn)	.	106	93	87
103	CCSc1nsc(NC(=O)Nc2ccc(Cl)cc2)n1	-13	96	.	.
104	CCc1ccc(C2NC(=O)c3[nH]nc(-c4cccc(OC)c4)c32)cc1 (stereo not drawn)	-7	105	96	83
105	COc1ccc(C(=O)CSC2=NCCc3ccccc32)cc1	-61	105	84	44
106	COc1ccc(Cl)cc1NC(=O)Cn1nc(C(F)(F)F)c2c1CCC2	-30	99	104	93
107	Cc1ccc2nc(C(=O)O)cc(Nc3ccc(C)c(F)c3)c2c1	-100	107	.	.
108	Cc1ccnc(SCC(=O)N2CCc3ccccc3C2)n1	.	96	101	92
109	COc1ccc(N2CCN(C(=O)CN(C)CC(=O)Nc3cccc(F)c3)CC2)cc1	-25	.	101	82

# Compound activity as filed in PubChem BioAssay.
